# Assay outcomes: PubChem BioAssay, several laboratories
# Calb FLC: C. albicans growth inhibition with fluconazole, primary screen, CaCi-2 strain, Alamar Blue fluorescence; C. albicans CaCi-2 (fluconazole-resistant clinical isolate) + fluconazole, 48 h; growth inhibition, % (no concentration beside the values); actives 0.57% (n = 300,000);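 active means most replicates above 75%; inconclusive means exactly half above 75%; inactive means most below 75%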;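 further: all wells also contain fluconazole at 8 µg/ml as a sub-toxic cotreatment; 0% = median of DMSO wells and 100% = median of geldanamycin control wells; wells of about 8 µL received 7.5 nL stock; the first replicate is given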
# RanGTP-Impb inh: inhibitors of RanGTP-importin-beta interaction, primary screen, biochemical, FRET, CFP-Ran, YFP-importin-beta, homogeneous. cell-free CFP-Ran/YFP-importin-beta FRET ratio. inhibition, % (test concentration not listed). actives 1.1% (n = 300,000);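 active means most replicates above 15%; inconclusive means exactly half above 15%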;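 further: 0% = DMSO wells and 100% = Ran loaded with GDP instead of GTP; wells of about 40 µL received 100 nL stock; the first replicate is given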
# HNF4A DNA FP: change in binding of human HNF4A to DNA, primary screen, biochemical, fluorescence polarization, FITC-DNA; AID 1224865, 2016; 1 h; Hepatocyte nuclear factor 4-alpha (Homo sapiens), P41235; activity change, % at 10 µM; actives 0.3% (n = 360,000); in the data active means activity change above about 30%, passing the limit was not always enough;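 further: controls were the assay level and a saturating level of protein; the project sought stronger binding though the title names inhibitors; some compounds called inactive have numbers as strong as hits; positive values seem to mean higher polarization but the record does not say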
# Target sequence (P41235 whole entry, looked up): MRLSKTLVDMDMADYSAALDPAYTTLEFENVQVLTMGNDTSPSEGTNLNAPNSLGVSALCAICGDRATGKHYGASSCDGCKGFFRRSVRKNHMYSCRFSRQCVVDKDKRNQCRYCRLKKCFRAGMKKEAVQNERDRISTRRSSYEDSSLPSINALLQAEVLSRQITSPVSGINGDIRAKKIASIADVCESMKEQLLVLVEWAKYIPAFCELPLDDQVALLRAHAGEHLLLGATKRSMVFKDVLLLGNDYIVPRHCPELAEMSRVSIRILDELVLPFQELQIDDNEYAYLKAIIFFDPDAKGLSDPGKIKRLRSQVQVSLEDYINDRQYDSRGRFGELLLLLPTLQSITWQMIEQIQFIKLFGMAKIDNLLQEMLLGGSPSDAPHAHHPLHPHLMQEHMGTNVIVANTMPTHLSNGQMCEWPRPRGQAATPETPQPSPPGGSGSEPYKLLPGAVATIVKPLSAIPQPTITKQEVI
# ALR H2O2 inh: inhibitors of human ALR sulfhydryl oxidase, primary screen, biochemical, H2O2 detection, HRP-luminol luminescence, single point; FAD-linked sulfhydryl oxidase ALR (Homo sapiens), P55789; purified ALR, DTT oxidation; inhibition, % (concentration not given with the values); actives 3.8% (n = 290,000); AID 485317, 2010;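 active means mean and each replicate at 75% or more; inconclusive means only one of the two met; inactive means neither met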;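 further: stock transfer was 7.5 nL into about 7.5 µL; 0% = neutral wells and 100% = wells with inactivated enzyme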
# Target sequence (P55789 whole entry, looked up): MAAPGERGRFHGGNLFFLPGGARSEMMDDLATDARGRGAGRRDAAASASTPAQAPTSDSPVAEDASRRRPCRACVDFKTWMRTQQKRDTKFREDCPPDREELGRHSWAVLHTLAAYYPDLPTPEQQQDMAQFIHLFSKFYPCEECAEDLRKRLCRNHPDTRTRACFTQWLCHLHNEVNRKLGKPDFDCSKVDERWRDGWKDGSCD
# LANA-H2A inh: blockers of LANA interaction with H2A/H2B – biochemical, FP readout, HTS, primary screen. AID 2629, 2010. Protein LANA1 (Human herpesvirus 8 type P (isolate GK18)), Q9QR71. inhibition, % (test concentration not listed). cell-free LANA-H2A/H2B peptide, fluorescence polarization. actives 0.6% (n = 320,000); in the data active means inhibition mostly above about 10%, no sharp cut-off; inactive means mostly below about 6.7%;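 further: stock transfer was 7.5 nL into about 10 µL; 0% = median of vehicle wells and 100% = median of positive control wells; one replicate is shown; the record names a cut of 25% in any replicate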
# Beta2AR agonist: beta2AR agonists driving receptor internalization, primary screen, cell-based, FAP fluorogen, flow cytometry; response, % (test concentration not listed); actives 0.43% (n = 340,000); Beta-2 adrenergic receptor (Homo sapiens), P07550; AID 504454, 2011; Am2.2-beta2AR cells; reference of the scale not given here;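 active means response above a set limit, near 3 SD of response in nonfluorescent compounds, cut at about 42% in these data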;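 further: stock transfer was 100 nL into about 11 µL; a reference agonist was the positive control; negative values mostly stem from fluorescent compounds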
# Target sequence (P07550 whole entry, looked up): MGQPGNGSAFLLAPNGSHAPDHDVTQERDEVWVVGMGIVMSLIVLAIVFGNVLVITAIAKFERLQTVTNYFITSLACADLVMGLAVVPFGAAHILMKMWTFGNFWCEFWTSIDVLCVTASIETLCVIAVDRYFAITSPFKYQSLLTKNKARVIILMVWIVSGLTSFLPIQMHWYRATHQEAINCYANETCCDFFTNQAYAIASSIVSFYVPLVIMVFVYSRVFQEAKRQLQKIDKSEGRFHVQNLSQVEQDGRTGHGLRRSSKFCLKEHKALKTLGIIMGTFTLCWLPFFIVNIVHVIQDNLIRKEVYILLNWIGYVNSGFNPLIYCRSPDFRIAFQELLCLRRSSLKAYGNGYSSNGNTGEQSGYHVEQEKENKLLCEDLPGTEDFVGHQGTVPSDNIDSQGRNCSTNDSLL
# Vif A3G: inhibitors of Vif binding to APOBEC3G peptide, primary screen, biochemical, TR-FRET, GST-Vif 1-94, biotin-A3G peptide, dose response retest (AID 1117319). TR-FRET GST-Vif / biotin-A3G peptide binding; higher % means a stronger effect; test concentration not given here; strong numbers were not always called active. Virion infectivity factor (Human immunodeficiency virus type 1 group M subtype B (isolate …. actives 0.57% (n = 260,000). inhibition, %; hits with a dose series show IC50 in µM;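 active means above the screen mean plus three standard deviations and confirmed in dose response; inconclusive means results disagree or hit not tested in dose response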;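 further: Vif residues 1-94 fused to GST binding biotinylated APOBEC3G peptide 110-148; 0% = full assay without inhibitor and 100% = GST in place of GST-Vif; retest series ran down from 100 µM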
# Numbers without * were called inactive; u = inconclusive; x = no result given.
# Sample of the layout (three entries):
SMILES,Calb FLC,RanGTP-Impb inh,HNF4A DNA FP,ALR H2O2 inh,LANA-H2A inh,Beta2AR agonist,Vif A3G
Cc1ccnc2nc(C(=O)OCC(=O)N3CCc4ccccc43)nn12,u,-4.3,4.2,-5,1.4,0,7%
CCCCn1c(N)c(N(CCC(C)C)C(=O)C2CC(=O)N(c3ccc4c(c3)OCCO4)C2)c(=O)[nH]c1=O (configuration not stated),2,-3.1,-1.7,-2,-0.2,-10,x
Cc1[nH]c(C)c(S(=O)(=O)NCCc2ccc(S(N)(=O)=O)cc2)c1C(=O)N1CCCC1,-5,2.1,-0.8,-1,-1.3,1,x

# The whole of this part, from the start:
SMILES,Calb FLC,RanGTP-Impb inh,HNF4A DNA FP,ALR H2O2 inh,LANA-H2A inh,Beta2AR agonist,Vif A3G
Cc1ccnc2nc(C(=O)OCC(=O)N3CCc4ccccc43)nn12,u,-4.3,4.2,-5,1.4,0,7%
CCCCn1c(N)c(N(CCC(C)C)C(=O)C2CC(=O)N(c3ccc4c(c3)OCCO4)C2)c(=O)[nH]c1=O (configuration not stated),2,-3.1,-1.7,-2,-0.2,-10,x
Cc1[nH]c(C)c(S(=O)(=O)NCCc2ccc(S(N)(=O)=O)cc2)c1C(=O)N1CCCC1,-5,2.1,-0.8,-1,-1.3,1,x
Fc1cc2[nH]c(=S)[nH]c2cc1Cl,34,0.8,-0.4,x,0.4,2,x
NC(N)=Nc1nc2ccc(Cl)cc2c(=O)[nH]1,3,0.1,3.0,-25,1.4,1,1%
CCCC[C@@H]1C[C@H]1[C@@H](NC(=O)c1ccco1)c1ccccc1C(F)(F)F,-1,1.2,x,-5,3.9,x,x
COC(=O)c1cccc(NC(=O)CSc2nc(C)cc(=O)[nH]2)c1,-2,1.3,-3.7,99*,-4.9,-1,19%
Cc1ccc[n+](CC(=O)Nc2nc3ccccc3s2)c1,-17,-1.9,-3.1,-2,-2.2,-3,x
CCN(C[C@H]1N[C@@](CC)(C(=O)OC)[C@H]2C(=O)N(Cc3ccccc3)C(=O)[C@@H]12)C(=O)Nc1ccc(Cl)cc1,x,x,5.1,x,x,-3,-6%
CC(C)N1C(=O)/C(=C\c2nc3ccccc3c(=O)[nH]2)c2ccccc21,x,x,11,60,-10.0,16,x

# Record cards, as listed above. Order of screens: Calb FLC, RanGTP-Impb inh, HNF4A DNA FP, ALR H2O2 inh, LANA-H2A inh, Beta2AR agonist, Vif A3G
# Cc1ccnc2nc(C(=O)OCC(=O)N3CCc4ccccc43)nn12 across the screens: u, -4.3, 4.2, -5, 1.4, 0, 7%
# Cc1ccc[n+](CC(=O)Nc2nc3ccccc3s2)c1 across the screens: -17, -1.9, -3.1, -2, -2.2, -3, x
# Fc1cc2[nH]c(=S)[nH]c2cc1Cl across the screens: 34, 0.8, -0.4, x, 0.4, 2, x
# CCCC[C@@H]1C[C@H]1[C@@H](NC(=O)c1ccco1)c1ccccc1C(F)(F)F across the screens: -1, 1.2, x, -5, 3.9, x, x

# Other entries follow:
SMILES,Calb FLC,RanGTP-Impb inh,HNF4A DNA FP,ALR H2O2 inh,LANA-H2A inh,Beta2AR agonist,Vif A3G
Cc1cc(-c2ccc(C)c(S(=O)(=O)NCC3CCN(Cc4ccccc4F)CC3)c2)on1,-6,-1.5,1.0,-6,6.5,-20,x
COc1ccccc1-n1c(=O)c2c3c(sc2n2c(SC)nnc12)CCC3,-14,3.0,-2.4,-13,7.1,-10,5%
Clc1ccc(Oc2cnns2)c(Cl)c1,8,-0.7,-0.2,x,-1.1,-1,5%
Cc1ccc(SC(C)C(=O)Nc2c(C)n(C)n(-c3ccccc3)c2=O)cc1 (configuration not stated),-6,-3.5,1.2,1,3.8,-11,0%
COC(=O)/C(=N/Nc1ccccc1C)N1CCCc2ccccc21,-4,-0.6,-0.2,98*,1.6,3,1.9µM*
COc1cccc(/C=N/Nc2nc3ccccc3[nH]2)c1OC,-8,3.0,-0.8,x,-6.0,-3,-7%
Cc1ccc(CNC(=O)C(=O)NCC2OCCN2C(=O)c2ccc(Cl)cc2)cc1 (configuration not stated),-4,9.6,0.1,6,-4.0,-21,x
COc1ccc(NC(=O)c2ccc(-c3csc(C)n3)cc2)cc1,1,5.1,-3.2,-2,6.2,13,-11%
CNc1nc(N(C)C)nc(N(C)C)n1,-3,3.9,1.3,3,6.6,7,-1%
COc1ccc(C2CC(c3c(-c4ccccc4)c4cc(Cl)ccc4[nH]c3=O)=NN2S(C)(=O)=O)cc1OC (configuration not stated),5,-0.9,6.5,x,-3.0,10,u
COC(=O)Cc1c(C)c2c(OCc3nn[nH]n3)cc(C)cc2oc1=O,18,-0.7,0.5,-3,-1.2,-4,u
COc1ccc(C2SCCN2S(=O)(=O)c2ccccc2)cc1 (configuration not stated),-11,-0.9,0.2,-1,3.2,11,18%
CN(C)CCCNC(=S)Nc1ccc(Br)cc1,-7,-1.5,0.7,4,4.6,7,-6%
CC1CCCN(C(=O)CCS(=O)(=O)c2ccc3c(c2)n(C)c(=O)c(=O)n3C)C1 (configuration not stated),3,1.8,-0.5,x,x,-3,3%
CC(=O)C(Cc1ccccc1)NC(=O)CCl (configuration not stated),u,-2.4,2.2,18,-0.1,4,11%
COC(=O)C(C)Sc1nc2c(cnn2-c2ccc(C)cc2)c(=O)[nH]1 (configuration not stated),-4,5.4,-2.2,-3,-5.2,-5,2%
C/C(=N\NC(=O)c1ccc2c(c1)OCCO2)c1ccccc1,-4,2.4,-1.2,0,-2.4,-11,-11%
CCN(CC(O)c1cccc(O)c1)C(=O)C12CC3CC(CC(C3)C1)C2 (configuration not stated),1,-9.0,3.5,x,-2.9,4,-4%
O=C(O)/C(=C\c1ccco1)NC(=O)c1ccc(Br)o1,-5,1.9,-7.7,7,-1.9,0,x
COc1ccc(N2CCN(CC(=O)Nc3ccc(-n4cnnn4)cc3)CC2)cc1,-6,1.0,0.2,1,-0.4,4,11%
O=C(NC(Cc1ccccc1)C(=O)O)/C(=C\c1ccco1)NC(=O)c1ccc(Br)cc1 (configuration not stated),-7,-0.7,-4.1,-2,-2.2,1,u
COc1ccc(CNC(=O)COc2ccc([N+](=O)[O-])cc2)cc1,-5,37*,0.4,3,-3.1,2,11%
COC(=O)c1nnn(-c2nonc2N)c1CSc1nnc(N)s1,2,2.4,-2.1,-3,-3.5,-9,7%
COc1cccc(-n2cc3c(c2-c2ccccc2)c(=O)n(C)c(=O)n3C)c1,-17,0.1,0.6,-27,-5.9,6,30%
O=Cc1ccc(OCC(=O)N2CCc3ccccc32)c(Br)c1,x,x,3.5,x,x,4,-4%
C=CCNc1cnn(-c2ccccc2)c(=O)c1Cl,-1,-5.8,0.3,-1,-3.0,-1,2%
CCN(Cc1ccc(C#CCCO)cc1)CC1CCCN(CCc2cccc(OC)c2)C1 (configuration not stated),-6,-5.2,0.7,-2,-3.3,9,x
O=C(CSc1n[nH]c(-c2cccnc2)n1)OC1CCCCC1,1,-0.8,1.7,60,-2.0,-3,6%
COc1ccccc1NC(=O)C1=C(C)Nc2nnnn2C1c1ccccn1 (configuration not stated),52,-1.3,0.2,1,-4.3,12,75%
CCOC(=O)C1CCN(C(=O)c2cc3c(s2)-c2ccccc2OC3)CC1,13,-4.3,-2.0,-32,0.8,-15,-9%
O=C(COC(=O)c1ccc(S(=O)(=O)N2CCCC2)cc1)Nc1ccc(Cl)cc1,x,x,-0.3,-8,4.3,3,0%
O=c1c(N2CCOCC2)nsn1Cc1ccccc1,-1,-0.8,1.3,-20,1.8,-17,4%
COCCn1cnc2c1c(=O)n(CC(=O)NCC(F)(F)F)c(=O)n2Cc1ccccc1,4,-1.4,5.4,-8,-0.2,-8,4%
O=C(COc1ccc2c3c(c(=O)oc2c1)CCC3)c1ccc2c(c1)OCO2,-6,-1.8,-0.9,1,-2.5,7,-3%
CCCSc1nsc(NC(=O)CC)n1,-2,7.4,-5.7,-5,2.3,-2,5%
O=C(O)c1cc(O)c2c(c1)C(=O)c1cccc(O)c1C2=O,x,-18,-28,-37,-1.3,9,u
N#Cc1ccc(NC(=O)c2nc(-c3ccccc3)n(-c3ccccc3)n2)cc1,-5,-2.0,2.1,-18,-2.2,-2,-1%
O=C(Cn1cnc2scc(-c3ccc(Cl)cc3)c2c1=O)N1CCOCC1,-8,6.7,-4.2,-7,-1.7,0,2%
CCN1/C(=C2/SC(=S)N(NC(C)=O)C2=O)Sc2ccc(Cl)cc21,8,33*,7.6,96*,-0.1,0,-6%
CCN(C(=O)COC(=O)c1ccc(OC)c(S(=O)(=O)N2CCCc3ccccc32)c1)C1CCS(=O)(=O)C1 (configuration not stated),27,u,-1.6,-3,2.9,4,1%
NC(=S)Nc1cccc2cc3ccccc3cc12,-22,1.1,-26,17,4.0,-11,11%
COC(=O)c1scc(S(=O)(=O)c2ccccc2)c1N,-5,u,8.2,x,x,-2,0%
O=C(OCc1cn(-c2ccc(Cl)c(Cl)c2)nn1)c1ccccc1Cl,u,-0.3,3.8,-2,0.8,2,1%
Cc1ccc(C)c(SCC(=O)Nc2nnc(-c3ccccc3)o2)c1,81*,5.4,1.1,-4,2.4,-3,4%
CC/C=C(\NC(C)=O)c1ccccc1,x,x,1.8,-11,-7.1,0,x
CC(=O)N1C(C(=O)O)Cc2c([nH]c3ccccc23)C1(C)C (configuration not stated),3,u,-9.1,-3,-0.2,3,x
CCc1ccc(NS(=O)(=O)c2c(C(=O)N3CCOCC3)c(C)n(C)c2C)cc1,-5,5.3,1.5,-3,-0.9,1,-6%
O=C(O)c1ccc(/C=C/c2ccc3cccc(O)c3n2)cc1,64,-1.8,-6.1,x,x,0,-4%
CCOCCCNC(=O)c1cc(Sc2ccc(F)cc2)nc2ccccc12,0,-2.6,0.7,-6,3.0,8,x
COc1ccc(C)cc1Nc1nc(N)c2cc(OC)c(OC)cc2n1,4,-1.4,3.6,-1,-3.8,29,-1%

# The list continues.
SMILES,Calb FLC,RanGTP-Impb inh,HNF4A DNA FP,ALR H2O2 inh,LANA-H2A inh,Beta2AR agonist,Vif A3G
O=C1CN(C(=O)COC(=O)COc2ccc3c(c2)CCC3)c2ccccc2N1,0,1.1,3.3,0,0.0,6,-3%
CCN1C(=O)c2n[nH]c(C(=O)OC)c2C1=O,-1,3.0,0.9,2,2.2,1,0%
CCN1CCN(C2=NC(=O)/C(=C/c3ccc(C)o3)S2)CC1,-1,-0.1,-1.0,-24,-1.4,4,3.5µM*
O=C(CSc1nc(-c2ccccc2)nc2c1Cc1ccccc1O2)Nc1ccccc1,-2,-4.1,x,x,-0.5,x,-5%
Cc1[nH]c2ccccc2c1C1(O)C(=O)N(C(C)C)c2ccccc21 (configuration not stated),-34,u,5.7,-12,1.5,8,18%
Cc1c(OCC(=O)OC(C)C)ccc2c3c(c(=O)oc12)CCC3,0,-3.2,-0.4,2,-6.2,-1,-6%
CCS(=O)(=O)c1ccc2c(c1)N(S(C)(=O)=O)CC(C(=O)NC1CC1)O2 (configuration not stated),4,-1.7,2.4,-5,2.3,-4,-2%
Cc1cc(C)c(C(=O)c2ccc(C(=O)NC(C)(C)C)cc2)c(C)c1,-7,1.6,9.8,5,-0.9,2,8%
COc1cc(NC(=O)C2CCCN(S(=O)(=O)c3cnc[nH]3)C2)cc(OC)c1 (configuration not stated),-1,1.2,1.9,98*,0.2,-3,3%
